High-throughput results deposited in PubChem by National Center for Advancing Translational Sciences (NCATS).
TRPV1 potentiator: human TRPV1 potentiation | Q8NER1 | TRPV1-expressing cells, Fluo-8 calcium influx, capsaicin EC20 potentiation; host cell line not named in the record; control for the full effect not named in the record | potentiation, % at 8.33 µM | 320,000 compounds, 0.02% hits | AID 540277; active means potentiation above 80%; inconclusive means 30% to 80%; inactive means below 30%; further: 0% is about no effect
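Fluo-8 calcium influx in TRPV1-expressing cells, kinetic read (ex 480/em 520 nm). Compound added and read 3 min for agonist activity, followed by capsaicin at EC20 final and 2 min further read for enhancement.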
CtBP-E1A inh: CtBP/E1A binding inhibition. AlphaScreen GST-E1A/His-CtBP binding, 1536-well; hits give low values; control for the full effect not named in the record. activity change, % (test concentration not listed). 340,000 compounds, 0.49% hits. AID 651724; in the data active means activity change below about -65%; inconclusive means about -30% to -65%; inactive means above about -30%; further: on the % scale 0 is the no-effect control and ±100 the full control effect
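In 5 uL wells, 23 nL compound meets equimolar GST-E1A and His-CtBP (5X stock 125 nM each) for 2 h, 37 °C. Beads (5X, 50 ug/mL) then 1 h, 37 °C, dark.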
Six1-Eya2 blk: blocks human Six1 binding to Eya2 | AID 651725 | 360,000 compounds, 0.56% hits | AlphaScreen GST-Six1/His-Eya2 binding, biochemical; hits give low values; control for the full effect not named in the record | Q15475+O00167 | activity change, % (no concentration beside the values); in the data active = activity change below about -65%; inconclusive = about -30% to -65%; inactive = above about -30%; further: on the % scale 0 is the no-effect control and ±100 the full control effect
Target sequence (O00167 whole entry, looked up): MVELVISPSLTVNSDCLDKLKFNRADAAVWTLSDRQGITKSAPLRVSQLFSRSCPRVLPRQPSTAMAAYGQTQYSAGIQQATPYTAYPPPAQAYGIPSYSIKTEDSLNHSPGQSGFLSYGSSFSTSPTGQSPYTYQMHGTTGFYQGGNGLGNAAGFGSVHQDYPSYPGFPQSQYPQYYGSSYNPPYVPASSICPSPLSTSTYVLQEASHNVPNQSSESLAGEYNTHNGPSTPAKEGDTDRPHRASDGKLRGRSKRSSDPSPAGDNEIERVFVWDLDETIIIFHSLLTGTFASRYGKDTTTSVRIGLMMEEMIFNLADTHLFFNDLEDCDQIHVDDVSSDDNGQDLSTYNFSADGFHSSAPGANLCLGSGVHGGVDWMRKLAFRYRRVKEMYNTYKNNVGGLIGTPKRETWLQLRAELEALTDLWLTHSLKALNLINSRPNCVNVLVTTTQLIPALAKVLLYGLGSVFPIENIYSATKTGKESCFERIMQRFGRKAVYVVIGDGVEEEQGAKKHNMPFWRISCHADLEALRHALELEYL
Target sequence (Q15475 whole entry, looked up): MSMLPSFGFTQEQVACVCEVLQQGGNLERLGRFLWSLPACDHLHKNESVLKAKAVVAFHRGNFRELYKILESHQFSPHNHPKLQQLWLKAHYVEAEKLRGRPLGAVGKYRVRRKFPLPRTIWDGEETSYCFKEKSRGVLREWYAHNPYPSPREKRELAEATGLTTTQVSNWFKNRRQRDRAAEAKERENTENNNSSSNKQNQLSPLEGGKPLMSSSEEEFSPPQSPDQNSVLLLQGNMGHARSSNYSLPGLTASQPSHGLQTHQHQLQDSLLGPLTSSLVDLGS
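Six1/Eya2 binding was read as AlphaScreen signal after compounds were pinned into GST-Six1 plus His-tagged Eya2 (5X stock 250/500 nM) in pH 8.0 Tris/NaCl/TCEP buffer, beads added, then incubated 1 h, 37 C, dark.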
TRPML1 ag: human mucolipin-1 channel agonism; TRPML1-expressing cells, Ca2+ dye fluorescence, FDSS; host cell line not named in the record; reference of the full effect not given here; activation, % (no concentration beside the values); 410,000 compounds, 0.12% hits; AID 624414; in the data active = activation above about 50%; inconclusive = about 30% to 50%; inactive = below about 30%; further: 0% is about no effect; the text of the record puts the active cut at 80%
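Tetracycline-induced TRPML1-DL cells are seeded and incubated overnight before loading with a no-wash Ca2+ dye and quencher. Agonist activity is taken from the 110 s fluorescence read following compound pin-transfer on an FDSS, before EC80 54-4 challenge.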
TRPML1 inh: blocks the human TRPML1 channel; 390,000 compounds, 0.02% hits; TRPML1-inducible cells, Ca2+ dye fluorescence, FDSS; hits give low values; inhibition of EC80 agonist-evoked calcium signal; Q9GZU1; AID 624415; activity change, negative = inhibition, % (no concentration beside the values); in the data active means activity change below about -50%; inconclusive means about -30% to -50%; inactive means above about -30%;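 further: stimulus is agonist 54-4 at its EC80 concentration; on the % scale 0 is the no-effect control and ±100 the full control effect; compound concentration not given in the record; the text of the record puts the active cut at -80%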
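TRPML1-DL cells, Tet-induced overnight (~16 h, 37 °C) at 1,500 cells/well, were loaded with Ca8 no-wash dye plus quencher for 45-90 min at room temperature. Compounds were pinned during FDSS kinetic reading; agonist 54-4 at EC80 (4 uM final) then added.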
D2 PAM: positive allosteric modulators of human D2 dopamine receptor | DiscoveRx D2 beta-arrestin cells, luminescence, 90 min; 100% = 57 uM dopamine signal | potentiation, % (test concentration not listed) | 360,000 compounds, 0.23% hits | AID 624464 | P14416; active = potentiation of 50% or more; inconclusive = 30% to 50%; inactive = 30% or less;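 further: compound concentration not given in the record; tested on top of an EC20 dose of dopamine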
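D2 cells co-treated with compound plus 50 nM dopamine (EC20) for 90 min at 37 deg C to detect potentiation. Beta-arrestin recruitment was read as enzyme-fragment luminescence after 1 h at ambient temperature. Full response was set by 57 uM dopamine.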
Starred values were filed as active, the others as inactive; ? = inconclusive; nt = no result given. An unsorted share of the library. About 0.95% of those tested had a hit in this group.

SMILES | TRPML1 ag | CtBP-E1A inh | TRPML1 inh | TRPV1 potentiator | Six1-Eya2 blk | D2 PAM
CCCCOC(=O)Sc1nc2ccccc2o1 | 1.2 | -16 | -6 | nt | -16 | -19
Cc1ccc(C(=O)NCC(=O)N2CCN(c3cccc(Cl)c3)CC2)s1 | -0.3 | -22 | -7 | nt | -5 | 1
O=c1ccn(-c2cccc(C(F)(F)F)c2)nc1-c1ccn(-c2ccccc2F)n1 | 1.0 | -2 | -9 | -16 | 7 | -7
COCCNS(=O)(=O)c1cc(F)ccc1OC | -0.2 | 0 | 8 | 2 | 2 | -7
O=C(Cn1c(C(F)(F)F)nc2ccccc21)OCC(=O)c1c[nH]c2ccccc12 | 1.4 | -25 | 37 | -15 | 3 | -6
CCc1ccc(OCC(=O)NC(=S)Nc2ccc(S(=O)(=O)NC3CCCCC3)cc2)cc1 | 0.9 | -5 | 44 | -4 | 2 | 9
CC1(C)SC2c3ccccc3C(=O)N2[C@@H]1C(=O)NC1CC1 (stereo partly specified) | -0.4 | -14 | 3 | -3 | -1 | -11
Cc1ccccc1OCC(=O)NNC=O | 0.4 | -1 | -4 | 5 | -5 | -7
Cc1cc(C)c(S(=O)(=O)N2CCN(C3CC(=O)N(c4ccccc4Cl)C3=O)CC2)c(C)c1 (stereo unspecified) | 0.1 | 1 | -10 | nt | -2 | -1
CC#CCN1c2ccccc2[C@]23C[C@@H](C(=O)OC)N(C(=O)NCCBr)C2=NC(C(=O)OC)=C(C(=O)OC)[C@H]13 | 0.4 | 2 | 8 | nt | -2 | -3
CCNC(=O)CC1C(=O)N(c2cccc(C)c2)C(=O)N1CCC(C)C (stereo unspecified) | -0.9 | 3 | -17 | 9 | -4 | -8
CCN(C[C@H]1N[C@@](Cc2ccccc2)(C(=O)OC)[C@H]2C(=O)N(C)C(=O)[C@@H]12)C(=O)NC(C)C | 0.1 | 6 | 5 | nt | -3 | nt
Nc1nc(-c2ccccc2)cn1/N=C/c1ccccc1 | 3.5 | -4 | 38 | -20 | -2 | -2
Cc1cc(C(=O)OCC(=O)c2cccc([N+](=O)[O-])c2)c2ccccc2n1 | 3.8 | 7 | 19 | -13 | 7 | -39
O=C1CS/C(=C\S(=O)(=O)c2ccc(Cl)cc2)N1 | 2.5 | -2 | -9 | 26 | 3 | -25
O=c1c2ccccc2sn1-c1cc(S(=O)(=O)N2CCOCC2)ccc1N1CCCC1 | 0.5 | -8 | 17 | 0 | -4 | -12
COc1ccc(C2CC(c3cccs3)=Nc3ccccc3S2)cc1 (stereo unspecified) | 4.0 | -12 | 20 | -4 | -19 | -6
O=C(NCC1CCCO1)c1cccc(Oc2ccccc2)c1 (stereo unspecified) | -0.2 | 7 | 39 | -17 | 4 | -7
O=C1N(c2ccccc2)C[C@@H]2C[C@@H](c3cccc4c3OCO4)N3CCC[C@@]123 | -0.5 | -3 | -10 | -7 | 0 | -10
CC(=O)N(NC(=O)c1ccccc1Cl)C1CC(=O)N(c2ccc(C)cc2)C1=O (stereo unspecified) | 0.3 | -3 | 32 | -6 | -1 | 0

Continued.
SMILES | TRPML1 ag | CtBP-E1A inh | TRPML1 inh | TRPV1 potentiator | Six1-Eya2 blk | D2 PAM
CCOC(=O)CNC(=O)Nc1cc(C(C)(C)C)nn1-c1ccccc1 | -0.4 | -1 | -1 | -7 | 12 | -3
CCOC(=O)N1CCC(Nc2nc3ccccc3n3cnnc23)CC1 | -0.2 | 3 | -8 | nt | -3 | -3
Cc1c(Cc2ccccc2)c(=O)oc2c(C)c(OCC(=O)NCc3ccccn3)ccc12 | -0.5 | 0 | -14 | 3 | -1 | -9
Nc1cc(S(=O)(=O)C(F)(F)F)ccc1C(=O)O | 1.3 | 1 | -2 | 22 | 9 | -9
CCOC(=O)Cc1csc(NC(=O)CCCCCN2C(=O)c3ccccc3C2=O)n1 | 1.5 | 5 | -1 | -1 | 0 | 3
COc1ccc(CCNC(=O)COC(=O)COc2ccc(C#N)cc2)cc1 | -0.6 | 3 | 1 | ? | 4 | 1
COc1cccc(-c2ccc(CN3C(C(C)C)C(=O)N(Cc4cn(CCC5OCCO5)nn4)CCS3(=O)=O)cc2)c1OC (stereo unspecified) | -0.1 | -6 | nt | nt | -9 | 2
CN(C)Cc1ccccc1COc1ccccc1 | -0.1 | 16 | -9 | 12 | -13 | -25
CN(C)S(=O)(=O)c1ccc(N2CCCC2)c(C(=O)NCC(=O)Nc2ccc(F)c(F)c2)c1 | 0.3 | 0 | -22 | -4 | -9 | -24
O=C(c1cnn2c(C(F)(F)F)cc(-c3cccs3)nc12)N1CCN(Cc2ccccc2)CC1 | 2.9 | -19 | 25 | -15 | -13 | -13
C[C@H](NS(=O)(=O)OCC(Cl)(Cl)Cl)C1CC1c1ccccc1 (stereo partly specified) | 1.1 | 13 | 1 | -22 | 2 | 2
O=C1[C@H]2[C@@H](c3ccc(C(F)(F)F)cc3)N[C@]3(CCCN(Cc4ccc(Br)cc4)C3=O)[C@H]2C(=O)N1Cc1ccccc1 | 5.3 | 2 | 9 | nt | 27 | -2
O=C(O)c1ccccc1Nc1ccc([N+](=O)[O-])c2nonc12 | 7.5 | -9 | -13 | 6 | 7 | 27
CC1CN(S(=O)(=O)c2ccc(F)cc2)CN1C(=O)N1CCOCC1 (stereo unspecified) | 1.3 | 1 | -2 | 0 | 6 | -8
O=C(COc1ncnc2ccccc12)NCc1ccco1 | 1.6 | 0 | 0 | -16 | 1 | -13
CCc1noc(C)c1C(=O)N1CCN(S(=O)(=O)c2ccccc2C(F)(F)F)CC1 | -0.4 | 6 | -2 | -1 | 3 | 0
O=C(O)c1cccc(O)c1O | 0.3 | 5 | -8 | nt | -5 | -4
COc1ccccc1N1CCN(C(=O)CN2C(=O)c3ccccc3C2=O)CC1 | 0.0 | -2 | 6 | -3 | 8 | 0
O=C(CSc1nc(O)cc(=O)n1C1CCCC1)Nc1cccc(Cl)c1Cl | -0.3 | 37 | -13 | -5 | 10 | 2
CS(=O)(=O)NCC(c1cccnc1)N1CCN(c2ccc(F)cc2)CC1 (stereo unspecified) | 0.8 | -1 | -13 | 30 | 2 | 5

Remaining list, next part
SMILES | TRPML1 ag | CtBP-E1A inh | TRPML1 inh | TRPV1 potentiator | Six1-Eya2 blk | D2 PAM
O=[N+]([O-])c1cc(S(=O)(=O)Nc2ccccc2)ccc1Nc1ccccc1 | 2.7 | ? | -4 | nt | -30 | -3
CCC(Cc1ccccc1)NS(=O)(=O)c1ccc2c(c1)NC(=O)C(C)S2 (stereo unspecified) | 2.3 | 2 | 15 | ? | 4 | -5
CCOc1ccc(C(C)=O)cc1CSc1nnc(-c2ccoc2C)n1N | -0.8 | -2 | -1 | -18 | -3 | -9
Nc1nc(Cl)cc(N2CCOCC2)n1 | 0.8 | -6 | -13 | nt | 0 | -17
CCCNC(=S)Nc1c(C)n(C)n(-c2ccccc2)c1=O | -0.2 | -10 | -2 | 0 | 28 | 5
CSc1cc(N2CCOCC2)nc(-c2ccccc2Cl)n1 | 0.7 | 4 | -13 | ? | 5 | -6
Cn1c(=O)c2sccc2n2c(CCCC(=O)NCCc3ccc(S(N)(=O)=O)cc3)nnc12 | -0.6 | -9 | -14 | 28 | -18 | -5
O=S(=O)(NCC(c1cccnc1)N1CCOCC1)c1ccccc1 (stereo unspecified) | 0.3 | nt | 10 | ? | 5 | -6
COc1cc(CN2CCN(CC#Cc3ccccc3)CC2CCO)cc(OC)c1 (stereo unspecified) | 0.4 | -8 | 15 | -18 | -2 | -5
Cc1ccc(-c2nn(-c3ccccc3)cc2/C=C/C(=O)Nc2nccs2)cc1 | 0.0 | 5 | -2 | -14 | 4 | -9
O=C(NCc1cc(Cl)cc(Cl)c1)c1ccc2nc([C@@H]3O[C@H](CO)[C@@H](O)[C@H]3O)[nH]c2c1 | -0.4 | -15 | nt | nt | -21 | -1
CCc1nc2c(OCc3ccccc3C(=O)OC)cccn2c1N(C)C(=O)CC(C)C | -0.3 | -7 | -24 | nt | -6 | -13
COc1ccc(N2CCN(C(=O)CCCCCn3c(=S)[nH]c4cc5c(cc4c3=O)OCO5)CC2)cc1 | -0.9 | 1 | 1 | -5 | -1 | -3
CCOC(=O)C1CCN(c2nc3cc(OC)ccc3cc2C#N)CC1 | 1.6 | 45 | 6 | -23 | 36 | 5
C/C(=N\NC(=O)CCCNc1ccc(C)cc1)c1ccccn1 | -0.5 | ? | 10 | -1 | ? | -14
CCC1CCCCN1C(=O)COc1cccc2c1CCN(C)C2=O (stereo unspecified) | -0.5 | 6 | -2 | ? | -20 | -7
Cc1ccc(S(=O)(=O)CC(=O)Nc2nnc(C)s2)cc1 | -0.1 | 7 | 38 | 2 | -3 | 0
O=C(NCCNC1CCC(c2ccccc2)CC1)c1ccc(F)cc1 (stereo unspecified) | -0.1 | -2 | -3 | 1 | 6 | -18
CC(C)n1cnc2c(Nc3cccc(F)c3)nc(NCCO)nc21 | -0.8 | -5 | -16 | -17 | -6 | -8
CCCCn1c(N)c(N(CC(C)C)C(=O)c2ccc(Br)s2)c(=O)[nH]c1=O | 0.4 | 4 | 5 | -5 | 3 | 16

Other records
SMILES | TRPML1 ag | CtBP-E1A inh | TRPML1 inh | TRPV1 potentiator | Six1-Eya2 blk | D2 PAM
CCCOc1ccc(/C=N/NC(=O)CSCc2ccc([N+](=O)[O-])cc2)cc1OCC | 1.4 | -4 | 11 | 7 | -14 | 12
CC(C)N(C(=O)CSc1nnc(NC(=O)c2cccs2)s1)C(C)C | -0.8 | 34 | 1 | -8 | 23 | -6
O=C(COC(=O)c1cccc(OC(F)F)c1)Nc1ncccn1 | 0.5 | -21 | 21 | nt | -1 | -12
O=C(COC(=O)c1cccc(F)c1)Nc1cccnc1Cl | -1.3 | 6 | -13 | 1 | -4 | -5
N#Cc1ccc(OCc2noc(-c3ccsc3)n2)cc1 | 0.5 | 11 | -10 | 1 | 9 | -7
CNc1ccc(-c2cccc(C(C)=O)c2)cn1 | -0.6 | 1 | nt | nt | 0 | -4
O=C(CSc1nc2ncccc2[nH]1)NCc1ccco1 | 0.8 | nt | -11 | -7 | -12 | -6
Cc1ccc(S(=O)(=O)N2CCCCC2)cc1NC(=O)CSc1nnc(C2CC2)n1C | 0.4 | 8 | 10 | nt | 2 | -2
COCCNC(=O)c1ccccc1-c1nc(-c2ccccc2OC)no1 | 0.7 | -3 | -10 | 7 | -10 | -8
CCc1ccccc1N1CN(Cc2ccco2)CNC1=S | -0.6 | nt | 27 | 29 | -2 | -14
O=C(C[n+]1ccc(C(=O)c2ccccc2)cc1)Nc1cccc([N+](=O)[O-])c1 | -0.3 | -1 | nt | nt | -11 | nt
Cc1ccc(NC(=O)CN2C(=O)CCS(=O)(=O)c3ccccc32)cc1Cl | 0.1 | -4 | 4 | 18 | -2 | -17
COc1ccc(/C=C2/SC(=S)N(NS(=O)(=O)c3ccc(C)cc3)C2=O)cc1 | 1.6 | -4 | 30 | ? | 9 | -4
CCNC(=S)NCCN1CCCCC1 | 0.1 | 2 | -10 | 6 | -1 | -2
O=C(O)c1ccc(N/N=C/c2ccc(-c3ccc(Cl)cc3Cl)o2)cc1 | -0.6 | nt | -6 | -2 | 7 | -5
COc1ccc(/C=C/c2c(-c3ccc(OC)cc3)sc3ccc(N4CCOCC4)cc23)cc1 | -0.9 | -8 | 12 | 5 | -13 | -3
